# Screens from PubChem BioAssay.
# A1 inh: inhibitors of the anti-apoptotic protein A1, read as caspase activation | MEF A1-2A-BIM cells, Caspase-Glo 3/7 luminescence, 3 h; percent of clofoctol response, vehicle zero | caspase activation, % (no concentration beside the values) | actives 0.066% (n = 330,000) | AID 2462;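 active = over half of replicate activation scores above 10%, or exactly half above 10 with the replicate mean above 10; inconclusive = replicate mean below 10 yet half the replicates above 10; inactive = over half of replicates below 10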;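 note: wells of about 30 µL received 50 nL stock; many hits fall short of the cut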
# LANA-H2B inh: blocks KSHV LANA binding to histone H2A/H2B. Q9QR71. cell-free LANA-H2A/H2B peptide, fluorescence polarization. inhibition, % (test concentration not listed). actives 0.6% (n = 320,000). AID 2629; in the data active = inhibition mostly above about 10%, no sharp cut-off; inactive = mostly below about 6.7%;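 note: stock transfer was 7.5 nL into about 10 µL; 0% = median of vehicle wells and 100% = median of positive control wells; one replicate is shown; the record names a cut of 25% in any replicate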
# Target sequence (Q9QR71 whole entry, looked up): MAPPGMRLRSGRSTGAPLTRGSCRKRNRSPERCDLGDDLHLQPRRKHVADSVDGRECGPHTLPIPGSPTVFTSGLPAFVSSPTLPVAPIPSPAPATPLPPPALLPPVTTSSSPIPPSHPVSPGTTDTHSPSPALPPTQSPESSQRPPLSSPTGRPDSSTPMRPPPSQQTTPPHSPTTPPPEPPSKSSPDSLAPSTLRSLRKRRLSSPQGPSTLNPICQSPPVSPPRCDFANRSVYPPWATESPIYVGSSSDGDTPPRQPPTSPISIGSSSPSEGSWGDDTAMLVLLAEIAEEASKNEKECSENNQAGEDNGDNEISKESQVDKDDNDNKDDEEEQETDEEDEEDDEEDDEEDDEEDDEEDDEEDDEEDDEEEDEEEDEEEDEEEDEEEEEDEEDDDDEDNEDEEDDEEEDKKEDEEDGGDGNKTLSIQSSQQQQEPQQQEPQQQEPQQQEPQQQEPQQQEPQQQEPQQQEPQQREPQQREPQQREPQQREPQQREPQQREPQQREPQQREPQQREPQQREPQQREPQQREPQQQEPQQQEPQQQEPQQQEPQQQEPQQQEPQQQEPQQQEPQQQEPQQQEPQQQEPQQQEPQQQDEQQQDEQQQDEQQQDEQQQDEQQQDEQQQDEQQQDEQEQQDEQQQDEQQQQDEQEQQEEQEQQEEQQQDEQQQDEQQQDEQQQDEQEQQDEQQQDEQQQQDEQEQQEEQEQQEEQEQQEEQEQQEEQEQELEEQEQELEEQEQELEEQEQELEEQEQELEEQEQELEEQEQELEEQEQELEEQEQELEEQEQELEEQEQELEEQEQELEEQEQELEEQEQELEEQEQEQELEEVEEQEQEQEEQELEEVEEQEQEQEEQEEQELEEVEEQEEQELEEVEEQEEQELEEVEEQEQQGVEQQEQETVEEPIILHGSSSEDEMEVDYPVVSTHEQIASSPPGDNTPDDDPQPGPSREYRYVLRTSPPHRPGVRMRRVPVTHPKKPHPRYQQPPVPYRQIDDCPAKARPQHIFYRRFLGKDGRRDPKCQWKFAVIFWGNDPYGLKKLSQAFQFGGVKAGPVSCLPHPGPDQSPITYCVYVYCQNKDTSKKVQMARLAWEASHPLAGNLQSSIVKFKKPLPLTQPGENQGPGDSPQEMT
# T cruzi inh: blocks replication of Trypanosoma cruzi; T. cruzi beta-gal in NIH3T3, luminescence, 90 h; inhibition, % (concentration not given with the values); actives 1.4% (n = 300,000);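 active = mean inhibition across valid replicates above about 55%, limit read from the data; inconclusive = mean below that limit but half or more replicates reach it; inactive = mean below it, under half of replicates reach it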;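 note: signal also drops with host cell toxicity which is not excluded here; 0% = plate median of DMSO wells and 100% = zero luminescence signal; higher percent means less beta-gal luminescence so fewer parasites; stock transfer was 50 nL into about 50 µL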
# Beta apoptosis: beta cell apoptosis inhibition; INS-1E cytokine-induced death, ATP luminescence, 48 h; percent of positive-control rescue, neutral wells zero; protection from apoptosis, % (no concentration beside the values); actives 0.8% (n = 300,000); AID 435005;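 active = all replicates at 75% or more, or half of them and the mean; inconclusive = half reach 75% but not the mean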;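 note: 0% = cytokine-treated negative control wells and 100% = positive control rescue; higher means more ATP so stronger rescue from cytokine killing; wells of about 40 µL received 100 nL stock; the first replicate is given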
# ALR H2O2 inh: blocks human ALR sulfhydryl oxidase activity; P55789; inhibition, % (no concentration beside the values); purified ALR, DTT oxidation, H2O2 HRP-luminol luminescence; AID 485317; actives 3.8% (n = 290,000);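 active = mean and each replicate at 75% or more; inconclusive = only one of the two met; inactive = neither met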;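 note: stock transfer was 7.5 nL into about 7.5 µL; 0% = neutral wells and 100% = wells with inactivated enzyme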
# Calb FLC: C. albicans growth modulation with fluconazole. C. albicans CaCi-2 (fluconazole-resistant clinical isolate) + fluconazole, Alamar Blue growth, 48 h. growth inhibition, % (test concentration not listed). actives 0.57% (n = 300,000). AID 1979;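 active = most replicates above 75%; inconclusive = exactly half above 75%; inactive = most below 75%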;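 note: all wells also contain fluconazole at 8 µg/ml as a sub-toxic cotreatment; 0% = median of DMSO wells and 100% = median of geldanamycin control wells; wells of about 8 µL received 7.5 nL stock; the first replicate is given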
# B2AR ag: activates human beta-2 adrenergic receptor causing internalization; Am2.2-beta2AR cells, FAP receptor internalization, flow cytometry; reference of the scale not given here; response, % (test concentration not listed); actives 0.43% (n = 340,000); AID 504454; P07550;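 active = response above a set limit, near 3 SD of response in nonfluorescent compounds, cut at about 42% in these data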;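 note: stock transfer was 100 nL into about 11 µL; a reference agonist was the positive control; negative values mostly stem from fluorescent compounds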
# rRNA inh HTS: selective bacterial rRNA inhibition in E. coli. E. coli WT GFP vs humanized-ribosome RFP mutants, fluorescence, 24 h; stronger effect = lower value; DMSO median 0, no signal -100. GFP signal change (wild-type ribosome), % (concentration not given with the values). actives 1.6% (n = 350,000);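 active = significant combined selectivity score with lowered wild-type GFP, culture density cut under 30%, mutant RFP and density less affected; inactive = any of these conditions unmet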; note: one replicate is shown; some compounds called inactive have numbers as strong as hits
# rRNA inh HTS OD600: recorded beside rRNA inh HTS, whose call it bears; OD600 change, %; measured here: OD600 growth;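 optical density of the mix in the first replicate; 0 = DMSO median and -100 = no signal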
# rRNA inh HTS RFP: second read-out of rRNA inh HTS, no call of its own (marks repeat the call); RFP signal change, %; measured here: RFP humanized mutant strains;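 first replicate; 0 = DMSO median and -100 = no signal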
# Starred values were filed as active, the others as inactive; ? = inconclusive; · = not tested or not shown. Not all compounds are listed, so the mix of outcomes need not match the whole.
SMILES,A1 inh,LANA-H2B inh,T cruzi inh,Beta apoptosis,ALR H2O2 inh,Calb FLC,B2AR ag,rRNA inh HTS,rRNA inh HTS OD600,rRNA inh HTS RFP
CCOc1ccc(NC(=O)NN2C(C)CCCC2C)cc1 (centres undefined),1.4,0.2,-1,-1,-6,3,·,1,-8,-4.3
CNC(=O)c1cc(S(=O)(=O)Nc2ccc(C)cc2C)ccc1C,1.5,3.7,-8,2,-10,-4,4,2,-3,-0.9
CC(C)Cc1nnc(NC(=O)CSc2ncn[nH]2)s1,-0.7,2.3,-16,-8,-2,5,·,·,·,·
CCOc1ccccc1CN1CCC(Oc2ccc(C(=O)NCc3ccccn3)cc2)CC1,·,·,32,·,·,-32,-8,2,10,5.0
O=C(c1cccc(N2CCNC2=O)c1)N1CCCC(Nc2cccc(F)c2)C1 (centres undefined),-0.8,-1.6,-18,-4,74,0,-3,-3,-7,-1.7
O=C1/C(=C/c2ccccc2Cl)SC(=S)N1CCC(=O)N1CCCCC1CCO (centres undefined),0.0,-3.0,-8,-37,-12,23,-3,-29,-31,-6.6
COc1ccc(/C=N\NC(=O)c2cc3c(ccc4ccccc43)o2)cc1O,0.6,1.5,·,9,-7,61,5,-46,-76,1.4
Cc1ccc(CC2CC(=O)N(C(Cc3ccccc3)C(=O)O)C2=O)cc1 (centres undefined),-0.1,2.1,-13,-2,6,-12,1,-5,-4,0.9
Cc1c(O)ccc(C(=O)CN2CCN(c3ccccc3F)CC2)c1O,-1.0,7.0,-17,-6,9,-2,13,·,·,·
CCCCNC(=O)C1CCN(Cc2ccccn2)CC1,-0.2,0.8,-12,-5,-5,-6,-2,·,·,·
CCOC(=O)C1(Nc2nccs2)Sc2ccccc2NC1=O (centres undefined),-0.3,2.4,-5,-2,10,-17,-1,·,·,·
CCN(CC)Cc1ccccn1,0.3,1.5,-24,-2,-4,-8,-5,-3,-2,-1.5
COc1cccc(NC(=O)NCCc2ccc(Cl)cc2)c1,0.0,-4.1,22,-4,-4,-9,0,-24*,-18*,1.3*
O=C(/C=C/c1c(Cl)cccc1Cl)N1CCOCC1,-0.6,-1.5,-14,·,1,5,-5,-2,-1,-1.4
CCc1ccc(C(=O)NN=C2CCCCCC2)s1,0.5,4.3,6,0,59,0,-1,2,6,-1.5
Cc1ccc(-c2nnc3ccc(SC(C)C(=O)O)nn23)cc1 (centres undefined),-0.1,-1.6,0,-5,-8,7,-8,6,1,0.2
O=[N+]([O-])c1ccccc1S(=O)(=O)N1CCN(Cc2ccsc2)CC1,0.0,-3.0,19,·,-6,21,4,-7,-8,-1.0
O=C(c1cc2ccccc2c(=O)o1)N1CCCc2ccccc21,0.5,0.2,-11,-8,-3,-1,-12,·,·,·
O=C(Nc1cc(Cl)cc(Cl)c1)c1cccnc1,0.3,-4.5,3,-1,-3,48,-2,-3,4,-12
C/C(=C\C(=O)c1cccnc1)Nc1ccc(O)cc1,-0.6,-1.5,-16,3,66,-12,-3,·,·,·
O=C(NC(=S)NCc1nc2ccccc2[nH]1)c1ccccc1F,0.2,-0.2,-8,-6,3,13,-5,-20,-33,29
Cc1ccc(N(C(C)C(=O)Nc2ccc3c(c2)OCO3)S(C)(=O)=O)cc1 (centres undefined),?,-0.3,0,-1,-18,-8,7,·,·,·
O=C(CCS(=O)(=O)c1ccc(Br)s1)N1CCc2ccccc21,0.7,-0.2,14,-3,0,-6,-16,·,·,·
CCOC(=O)c1ccc(CS(=O)c2ccc(Cl)cc2)o1 (centres undefined),0.2,-0.5,-18,-9,-9,28,15,·,·,·
CCc1cc2cccc(C)c2nc1SCC(=O)NNC(=O)c1ccco1,0.4,1.1,-19,-6,1,-11,-2,·,·,·
CCCOc1ccc(C(=O)N2CCN(Cc3ccc4c(c3)OCO4)CC2)cc1,0.4,4.7,14,0,-2,-2,0,-24,-17,0.3
O=C(Nc1ccccc1N1CCOCC1)c1cccc(NS(=O)(=O)c2ccc(F)c(F)c2)c1,1.0,-2.1,29,6,8,13,0,-36,-43,2.6
Cc1ccc(Nc2nc(N)nc(CN3CCN(Cc4ccc5c(c4)OCO5)CC3)n2)cc1C,·,·,19,·,·,-9,15,-10,-14,3.8
O=C(CCSc1ccc(F)cc1)NNC(=O)c1ccc([N+](=O)[O-])cc1,-1.2,-3.2,·,3,-2,·,-1,-6,-3,-3.8
CCN(CC)C(=O)C1CCCN(Cc2nc(-c3cnccn3)no2)C1 (centres undefined),-0.5,-6.0,2,1,-2,5,-1,26,16,2.1
CCOc1cc(C(N)=O)cc(Cl)c1OCc1ccccc1,0.5,5.4,-6,-2,-1,112*,2,-33,-35,-18
O=C(Nc1cccnc1)c1cccc(S(=O)(=O)N2CCc3ccccc32)c1,0.7,-2.3,26,-6,2,25,-6,-30,-40,1.9
Cc1ccc(/C=N/NC(=O)C2CCN(Cc3ccc(F)cc3Cl)CC2)o1,0.1,2.8,-10,4,-2,-5,6,·,·,·
COc1ccc2nc(C)c3c(c2c1)OC(C(C)(Cl)Br)C3 (centres undefined),-0.7,7.4,3,6,-5,1,3,-18,-17,4.7
Cc1cc(C)c(NC(=O)CN(C)C(=O)CNC(=O)c2cccs2)c(C)c1,-0.5,-1.9,·,-17,-2,·,-3,26,14,7.8
CC1CCc2c(C(=O)Nc3ccc(N4CCOCC4)cc3)csc2C1 (centres undefined),3.1,1.4,8,2,5,2,-25,-6,-3,2.1
O=C(NCC(=O)N1CCc2ccccc2C1)c1ccc(Cl)cc1Cl,-0.8,0.1,0,2,-15,5,-1,-19,-26,-15
CCn1cc(C(=O)N(C)c2ccc(OC)cc2)c2cc(OC)c(OC)cc2c1=O,1.1,-0.2,-7,2,-3,14,-5,7,-4,9.5
O=C1CN(C(=O)CSc2nnc(C3CC3)n2-c2ccccc2)c2ccccc2N1,-1.6,2.0,-4,-4,-3,9,10,·,·,·
CCOC(=O)CSc1nc2c(sc3ccc([N+](=O)[O-])cc32)c(=O)n1Cc1ccco1,-0.8,3.4,17,1,-4,-9,18,·,·,·
COc1ccc(N2C(=O)CC(SCC(=O)O)C2=O)cc1 (centres undefined),-0.4,-3.2,-8,-2,-19,-4,1,5,2,-2.6
CC(C)C(=O)Nc1ccc(S(=O)(=O)Nc2nccc(/C=C/c3ccccc3)n2)cc1,0.1,-3.9,-8,-2,-2,2,5,-10,-18,-7.4
O=c1c2ccccc2nc2c3ccccc3c(NCc3ccccn3)nn12,-0.3,-3.4,21,4,-9,·,-2,-24,-20,-9.4
O=C(Nc1nccs1)[C@@H]1CC=C[C@@H]2CCN(Cc3ccccc3)C(=O)[C@@H]21,-0.6,-1.4,-14,-5,-7,-7,-3,-11,-6,3.4
O=C(N/N=C/c1ccc(O)cc1)/C(=C/c1ccc([N+](=O)[O-])cc1)NC(=O)c1ccccc1,0.9,-3.6,-4,-4,62,1,0,·,·,·
Cc1ccc(S(=O)(=O)N2CCCCC2)cc1NC(=O)COC(=O)Cc1ccc(Cl)cc1,0.2,·,4,-6,·,0,4,·,·,·
OC(CNCC1COc2ccccc2O1)COCc1cccs1 (centres undefined),0.8,-1.7,23,1,-2,-15,3,·,·,·
O=C(NCCN1C(=O)S/C(=C\c2ccccc2Cl)C1=O)C1=COCCO1,-0.2,-0.6,0,0,1,-6,8,8,11,0.2
COc1ccc(/C=C2/SC(=S)N(Cc3ccccc3)C2=O)cc1O,0.0,-5.8,-1,3,4,1,6,-1,5,-0.4
Cc1cc(C)c(S(=O)(=O)N2CCCCC2)c(C)c1N(C)S(=O)(=O)c1ccccc1,-1.0,-4.3,25,-11,-3,5,9,·,·,·
C=CCOc1ccc(CNc2nccs2)cc1,-3.7,-4.7,24,-8,3,-50,-4,·,·,·
Cc1ccc(NC(=O)c2ccc(Cn3cc(Cl)cn3)o2)c(C)c1,0.4,-5.4,0,·,-11,6,-2,-10,-6,2.6
Cc1cc(Br)ccc1NC(=O)C(C)c1ccc([N+](=O)[O-])cc1 (centres undefined),0.6,0.7,-18,0,-2,-19,-5,0,13,-4.3
CC(C)(C)OC(=O)C[C@H]1C/C=C\C[C@H](CC(=O)N[C@H](CO)Cc2ccccc2)C(=O)N[C@@H](Cc2ccccc2)COC1=O,-1.2,5.0,·,-1,0,·,-1,-4,5,0.1
Cn1nnnc1Sc1ncnc2scc(-c3cc4ccccc4o3)c12,0.3,0.8,·,89*,14,·,53*,-28,-43,-9.1
COc1ccc(N2CCN(C(=O)c3ccc4c(c3)CCN4S(=O)(=O)c3ccccc3)CC2)cc1,-0.6,-3.8,3,-10,7,18,5,1,-16,1.0
CCOC(=O)c1c(-c2ccc(OC)cc2)csc1NC(=O)COc1ccc2c(C)cc(=O)oc2c1,-0.4,-0.6,-18,4,-2,26,6,4,7,-0.2
CCCC(=O)OCC(=O)NCc1ccc(Cl)cc1,-0.3,2.6,10,-9,3,4,-1,4,-4,0.0
COc1ccc(NC(=O)C2CC(=O)n3cnnc3S2)cc1 (centres undefined),1.4,6.9,20,0,2,-3,-2,·,·,·
O=C(O)c1ccc2c(c1)N(Cc1cccc(F)c1)C(=O)CS2,0.0,-1.9,-8,-3,-7,-2,1,-8,-11,-4.5

# As a working copy, 2 of the compounds above:
SMILES,A1 inh,LANA-H2B inh,T cruzi inh,Beta apoptosis,ALR H2O2 inh,Calb FLC,B2AR ag,rRNA inh HTS,rRNA inh HTS OD600,rRNA inh HTS RFP
Cc1ccc(S(=O)(=O)N2CCCCC2)cc1NC(=O)COC(=O)Cc1ccc(Cl)cc1,0.2,·,4,-6,·,0,4,·,·,·
OC(CNCC1COc2ccccc2O1)COCc1cccs1 (centres undefined),0.8,-1.7,23,1,-2,-15,3,·,·,·

# Continuation:
SMILES,A1 inh,LANA-H2B inh,T cruzi inh,Beta apoptosis,ALR H2O2 inh,Calb FLC,B2AR ag,rRNA inh HTS,rRNA inh HTS OD600,rRNA inh HTS RFP
S=C(NCc1ccccc1)N1CCCCC1,0.1,-3.4,-13,-10,-2,3,5,15,16,3.1
CCC(C)NC(=O)c1cnn2c1NC(c1ccc3c(c1)OCO3)CC2C(F)(F)F (centres undefined),-0.7,1.0,-7,·,10,2,-7,·,·,·
Cc1ccc2[nH]c(=O)c(CN(CC3CCCO3)C(=O)c3ccncc3)cc2c1 (centres undefined),0.1,-0.7,-6,0,-4,4,9,·,·,·
O=C(Nc1ccc2oc(-c3ccccc3)nc2c1)c1ccc2c(c1)OCCO2,0.2,0.7,25,-2,-10,?,11,·,·,·
O=C(Nc1ccc(NC(=O)C2CC2)nc1)c1ccccc1F,-1.6,1.5,1,-2,·,5,-14,1,4,-1.3
COCCCNC(=S)NC(=O)c1ccc(C)cc1,0.1,-1.5,1,-2,3,-3,-5,6,0,-4.4
CC(=O)OCCC(NS(=O)(=O)OCC(Cl)(Cl)Cl)c1ccccc1 (centres undefined),0.2,-5.6,-14,0,·,-8,-1,1,4,1.4
COc1ccc2ccccc2c1CNc1nnnn1C,1.5,0.4,-9,-7,-1,-7,-5,2,-2,-6.1
O=C1COc2ccc(C(=O)CSc3nnc(Cc4ccccc4)o3)cc2N1,-0.1,1.3,-2,·,-7,-5,2,9,5,0.2
